From PubChem BioAssay
FGF22 binding: binders of recombinant human FGF22 by thermal shift; Q9HCT0; SYPRO orange fluorescence; percent of sucrose octasulfate shift, DMSO zero; calls only at 9.99 µM; 340,000 compounds, 1.5% hits;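 active = melting point raised past a set limit in the mean and every replicate; inconclusive = no clear call; three in four hits are not shown here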
Target sequence (Q9HCT0 whole entry, looked up): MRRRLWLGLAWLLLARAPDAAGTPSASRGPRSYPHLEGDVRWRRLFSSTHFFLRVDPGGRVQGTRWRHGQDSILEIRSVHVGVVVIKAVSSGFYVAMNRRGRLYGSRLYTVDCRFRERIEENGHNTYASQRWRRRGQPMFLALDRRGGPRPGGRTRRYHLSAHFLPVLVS
RanGTP-Imp inh: disruptors of Ran-importin-beta complex formation – biochemical, FRET, CFP-Ran, YFP-importin-beta, homogeneous, primary screen. 300,000 compounds, 1.1% hits. inhibition, % (no concentration beside the values). cell-free CFP-Ran/YFP-importin-beta FRET ratio;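 active = most replicates above 15%; inconclusive = exactly half above 15%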;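 note: 0% = DMSO wells and 100% = Ran loaded with GDP instead of GTP; wells of about 40 µL received 100 nL stock; the first replicate is given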
Calb FLC: affects C. albicans growth with fluconazole. 300,000 compounds, 0.57% hits. growth inhibition, % (test concentration not listed). C. albicans CaCi-2 (fluconazole-resistant clinical isolate) + fluconazole, Alamar Blue growth, 48 h;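 active = most replicates above 75%; inconclusive = exactly half above 75%; inactive = most below 75%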;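 note: all wells also contain fluconazole at 8 µg/ml as a sub-toxic cotreatment; 0% = median of DMSO wells and 100% = median of geldanamycin control wells; wells of about 8 µL received 7.5 nL stock; the first replicate is given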
T cruzi repl: T. cruzi replication inhibition; 300,000 compounds, 1.4% hits; T. cruzi beta-gal in NIH3T3, luminescence, 90 h; inhibition, % (test concentration not listed);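 active = mean inhibition across valid replicates above about 55%, limit read from the data; inconclusive = mean below that limit but half or more replicates reach it; inactive = mean below it, under half of replicates reach it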;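 note: signal also drops with host cell toxicity which is not excluded here; 0% = plate median of DMSO wells and 100% = zero luminescence signal; higher percent means less beta-gal luminescence so fewer parasites; stock transfer was 50 nL into about 50 µL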
Beta apoptosis: blocks beta cell apoptosis; 300,000 compounds, 0.8% hits; protection from apoptosis, % (concentration not given with the values); AID 435005; INS-1E cytokine-induced death, ATP luminescence, 48 h; percent of positive-control rescue, neutral wells zero;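 active = all replicates at 75% or more, or half of them and the mean; inconclusive = half reach 75% but not the mean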;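 note: 0% = cytokine-treated negative control wells and 100% = positive control rescue; higher means more ATP so stronger rescue from cytokine killing; wells of about 40 µL received 100 nL stock; the first replicate is given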
Ecoli rRNA inh: inhibitors of bacterial rRNA selective over humanized ribosomes | E. coli WT GFP vs humanized-ribosome RFP mutants, fluorescence, 24 h; hits give low values; DMSO median 0, no signal -100 | GFP signal change (wild-type ribosome), % (concentration not given with the values) | 350,000 compounds, 1.6% hits;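 active = significant combined selectivity score with lowered wild-type GFP, culture density cut under 30%, mutant RFP and density less affected; inactive = any of these conditions unmet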; note: one replicate is shown; some compounds called inactive have numbers as strong as hits
MLL AF4-AF9 inh: MLL-AF4/AF9 protein interaction inhibition; P42568; AlphaScreen, biotin-AF4 peptide binding to FLAG-AF9; inhibition, % at 10 µM; 350,000 compounds, 0.47% hits;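 active = every replicate reaching a set inhibition limit, whatever the replicate mean, cut at about 25% in these data; inconclusive = mean inhibition reaches that limit but some replicates miss it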;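 note: 0% = plate neutral control median and 100% = total signal loss; the record names both 10 and 1 µM as test concentration; the first replicate is given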
Target sequence (P42568 whole entry, looked up): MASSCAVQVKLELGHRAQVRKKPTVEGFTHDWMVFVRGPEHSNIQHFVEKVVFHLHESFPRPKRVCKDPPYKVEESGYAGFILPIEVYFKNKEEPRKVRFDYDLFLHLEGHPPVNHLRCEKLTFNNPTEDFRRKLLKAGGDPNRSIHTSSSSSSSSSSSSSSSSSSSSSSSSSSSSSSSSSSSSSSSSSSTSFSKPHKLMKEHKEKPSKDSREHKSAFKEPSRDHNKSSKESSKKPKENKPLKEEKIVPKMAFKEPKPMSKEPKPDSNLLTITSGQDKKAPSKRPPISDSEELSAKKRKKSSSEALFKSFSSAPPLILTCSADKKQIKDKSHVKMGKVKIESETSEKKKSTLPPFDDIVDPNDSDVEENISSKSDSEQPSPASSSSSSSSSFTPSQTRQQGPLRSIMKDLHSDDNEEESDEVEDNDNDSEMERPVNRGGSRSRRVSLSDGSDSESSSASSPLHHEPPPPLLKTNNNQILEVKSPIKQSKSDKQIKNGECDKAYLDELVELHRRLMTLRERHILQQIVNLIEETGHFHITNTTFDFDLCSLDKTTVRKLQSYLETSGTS
ALR inh: blocks human ALR sulfhydryl oxidase activity | P55789 | purified ALR, DTT oxidation, H2O2 HRP-luminol luminescence | inhibition, % (test concentration not listed) | 290,000 compounds, 3.8% hits | AID 485317;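 active = mean and each replicate at 75% or more; inconclusive = only one of the two met; inactive = neither met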;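 note: stock transfer was 7.5 nL into about 7.5 µL; 0% = neutral wells and 100% = wells with inactivated enzyme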
Target sequence (P55789 whole entry, looked up): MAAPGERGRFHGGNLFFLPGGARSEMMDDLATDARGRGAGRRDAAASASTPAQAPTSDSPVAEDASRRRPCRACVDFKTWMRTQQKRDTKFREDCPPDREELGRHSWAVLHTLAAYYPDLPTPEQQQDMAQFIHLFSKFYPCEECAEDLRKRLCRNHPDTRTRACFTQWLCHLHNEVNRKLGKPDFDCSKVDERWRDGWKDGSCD
Ecoli rRNA inh OD600: second read-out of Ecoli rRNA inh, no call of its own (marks repeat the call); OD600 change, %; measured here: OD600 growth;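 optical density of the mix in the first replicate; 0 = DMSO median and -100 = no signal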
Ecoli rRNA inh RFP: recorded beside Ecoli rRNA inh, whose call it bears; RFP signal change, %; measured here: RFP humanized mutant strains;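 first replicate; 0 = DMSO median and -100 = no signal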
* marks the source's active call; other numbers are inactive results; i = inactive; ? = inconclusive; · = no result given; & = joins results of further samples. Not all compounds are listed; count on the stated rates, not on these rows.

SMILES	FGF22 binding	RanGTP-Imp inh	Calb FLC	T cruzi repl	Beta apoptosis	Ecoli rRNA inh	Ecoli rRNA inh OD600	Ecoli rRNA inh RFP	MLL AF4-AF9 inh	ALR inh
O=C(NCc1ccccn1)C1CCC(CNS(=O)(=O)c2cccc3nsnc23)CC1 (stereo not given)	i	0.3	3	-1	0	1	-2	-3.5	-52	-4
C[C@H](CO)N1C[C@H](C)[C@@H](CN(C)Cc2ccc(C(=O)Nc3ccccc3N)cc2)Oc2c(NC(=O)C3CCCCC3)cccc2C1=O	i	·	·	·	7	2&-2	6&-9	-4.9&-1.4	5.1	-3
CC1(C)Cc2c(C#N)c(N)n(-c3ccccc3)c(=S)c2CO1	i	-18	-30	6	1	2	3	0.9	0.6	-30
FC(F)(F)c1ccc(NC2=NCCC2)cc1	i	-0.5	?	39	-10	15	8	-0.2	-1.3	-18
COc1ccc2[nH]c(=O)c(CN(CCO)C(=O)c3cccs3)cc2c1	i	-1.4	-1	-3	-6	9	10	-8.9	7.8	-3
Cc1cccc(C(=O)OCC(=O)N2CCC(c3ccccc3)=N2)c1O	i	·	-10	-1	-4	-1	9	-2.3	2.3	3
CC(C(=O)Nc1cccc([N+](=O)[O-])c1)N1C(=O)NC2(CCCC2)C1=O (stereo not given)	i	?	0	-11	-3	4	9	-2.2	2.1	15
O=C(Nn1c(-c2ccc(Br)cc2)nc2ccccc2c1=O)c1ccc([N+](=O)[O-])cc1	i	1.5	?	25	3	-13	-16	2.6	-7.2	40
COc1ccc(Nc2nc(N)c(C(=O)c3ccc(OC)cc3)s2)cc1	i	2.5	45	44	-16	-15	-15	15	4.0	-3
CC(C(=O)Nc1ccc2c(c1)OCO2)n1cnc2c1c(=O)n(C)c(=O)n2C (stereo not given)	i	·	·	·	-1	·	·	·	0.2	-12
CCCc1ccc(Oc2cn[nH]c2-c2ccc(O)cc2O)cc1	·	·	68*	0	2	·	·	·	·	-4
C=CCNC(=O)c1ccc(S(=O)(=O)CC)c(Cl)c1Cl	i	2.6	-10	-18	-2	-7	0	-2.8	-1.4	-17
CCOC(=O)COc1cc(Br)c(/C=N/Nc2ccccc2)cc1OC	·	0.9	-16	-2	-8	·	·	·	·	-6
COc1ccc(/C=C/C(=O)c2ccc(NC3=NCCCS3)cc2)cc1OC	i	4.1	-5	42	13	-1	1	41	?	33
Cc1c(CC(=O)O)c(=O)oc2c(C)c(OCc3ccc(F)cc3F)ccc12	i	-1.6	8	-5	·	-4	1	-1.0	3.9	·
CCCNc1nc2nc3ccccn3c(=O)c2cc1C(=O)NCCN1CCOCC1	i	131*	-4	9	0	1	10	-3.5	-1.5	-1
CC(C)Cc1ccc(CN2CCCC(NC(=O)c3cccc(-n4cnnc4)c3)C2)cc1 (stereo not given)	i	0.9	-10	39	7	-28	-24	-1.3	-3.5	-5
CSc1cccc(NC(=O)CNC(=O)C2CCCCC2)c1	i	-0.8	-11	-5	·	3	4	-2.1	-1.3	-1
Cc1cc(NC(=O)CSc2nnc(-c3ccoc3C)o2)no1	·	2.1	8	-24	-7	·	·	·	·	-7
c1ccc(OCc2ccc(CCCN3CCOCC3)cc2)cc1	i	4.5	-20	8	1	2	6	-0.5	-3.7	-1
COC(=O)c1cccc(NC(=S)Nc2ccc(Cl)c(Cl)c2)c1	i	0.2	?	6	3	-48*	-37*	-12*	0.2	27
COc1ccc(NS(=O)(=O)c2cccc(NC(=O)NCCCl)c2)cc1	i	-1.4	18	-3	-6	4	11	-2.6	0.7	-1
Cc1ccc(C)c(Nc2nn3c(=O)c4ccc(C(=O)NCc5cccnc5)cc4nc3s2)c1	i	2.4	17	-15	-1	-10	-8	3.6	0.8	0
CCOC(=O)c1c(C)c(C(=O)N(C)C2CCCCC2)c(C)n1C	·	-2.7	-20	3	-3	·	·	·	·	·
CCn1c(=N)n(CCOc2ccc(OC)cc2)c2ccccc21	·	0.5	5	-1	0	·	·	·	·	-1
CC1(c2ccc(Cl)cc2)NC(=O)N(CC(=O)NC2CCCCC2)C1=O (stereo not given)	i	·	·	·	2	-1	-5	-1.1	-3.6	-8
O=C1c2ccccc2NC(c2ccc(Br)o2)N1O (stereo not given)	i	·	·	·	-1	9	16	4.4	-2.9	12
CCN1C(=O)c2cccc3c(S(=O)(=O)NCC4CCCO4)ccc1c23 (stereo not given)	i	18*	23	17	-12	-6	-8	-1.5	3.8	·
CCOC(=O)c1ccccc1NC(=O)c1ccc(NS(C)(=O)=O)cc1	·	3.9	16	-10	-2	·	·	·	·	4
O=C(c1ccccc1F)N1CCN(c2ccccc2F)CC1	·	0.0	-3	-2	3	·	·	·	·	·
CC(=O)N1CCN(c2ccc(NC(=O)c3cccc(OCc4ccccc4)c3)cc2)CC1	·	2.4	4	·	-2	·	·	·	·	1
O=C(COC(=O)c1ccccc1NCCO)NCCc1ccccc1	i	-0.9	1	-9	-6	-1	-13	-0.9	0.8	4
O=C(Nc1ccccc1)Nc1nncs1	·	4.0	-3	-15	1	·	·	·	·	-3
CCC12CN(C(=O)c3ccc([N+](=O)[O-])cc3)CC(CC)(CN(C(=O)c3ccc([N+](=O)[O-])cc3)C1)C2=O	i	3.5	3	13	-4	19	2	1.5	-0.7	-10
C1CN(CC2CCN(c3nc4nonc4nc3N3CCSCC3)CC2)CCO1	i	4.8	3	1	3	15	7	0.5	-1.4	3
CCN(C(=O)COC(=O)CCc1c[nH]c2ccccc12)c1c(N)n(Cc2ccccc2)c(=O)[nH]c1=O	i	5.3	-3	-11	0	10	11	3.4	1.5	·
O=S(=O)(Nc1ccccc1)c1ccc(-c2csnn2)cc1	i	1.5	-5	-12	1	-19	-11	-0.4	-7.8	-7
CCOC(=O)c1ccc(S(=O)(=O)N2CCN(Cc3cc4c(cc3O)OCO4)CC2)cc1	i	·	·	·	-10	-8	9	-2.1	-0.8	-96
O=C(C1CCN(S(=O)(=O)c2ccc(Cl)c(C(F)(F)F)c2)CC1)N1CCC1	i	·	·	·	-3	-1	7	-5.8	-5.9	6
N#Cc1c(SCc2ccc(Cl)cc2)sc(C(=O)c2ccccc2)c1N	·	2.4	-2	26	-10	·	·	·	·	-7
Cc1ccc(NC(=O)CCc2ccc(S(=O)(=O)N3CCOCC3)cc2)c(Cl)c1	i	·	·	·	5	-3	-14	2.1	-15	1
O=C(c1ccc(-c2ccccc2)cc1)C1CCCN(C(=O)c2cncs2)C1 (stereo not given)	i	-3.4	18	19	-4	-50	-70	-19	-0.3	-10
CN(Cc1c(F)cccc1Cl)C(=O)c1cccc(S(=O)(=O)NCc2ccccc2)c1	i	0.5	4	-10	4	-36	-36	-6.1	-1.0	-2
CC(C)c1ccc(-c2nnc(SCC(=O)NC3CC3)n2C)cc1	i	-0.5	-1	1	1	3	5	1.6	-2.7	-1
O=C(Nc1cccnc1)c1ccccc1-c1ccccc1	i	0.8	12	-5	·	5	5	-1.9	0.7	-3

Single values from the results shown:
CC(C)c1ccc(-c2nnc(SCC(=O)NC3CC3)n2C)cc1 – ALR inh = -1
O=S(=O)(Nc1ccccc1)c1ccc(-c2csnn2)cc1 – Ecoli rRNA inh RFP = -0.4

Later entries.
SMILES	FGF22 binding	RanGTP-Imp inh	Calb FLC	T cruzi repl	Beta apoptosis	Ecoli rRNA inh	Ecoli rRNA inh OD600	Ecoli rRNA inh RFP	MLL AF4-AF9 inh	ALR inh
Cc1ncc(CSc2nccc(=O)[nH]2)c(CO)c1O	i	2.6	0	10	-2	13	11	-1.2	-1.5	22
C/C(CC(=O)N1CCN(C=O)CC1)=N\NC(=O)c1cccc([N+](=O)[O-])c1	i	5.6	10	-1	0	25	9	-0.7	-0.7	11
Cc1noc(C)c1CSc1ncnc2sc(C)c(C)c12	·	-1.5	-9	5	-2	·	·	·	·	-1
COc1ccc(OC)c(S(=O)(=O)NCC(c2ccco2)N2CCc3ccccc32)c1 (stereo not given)	i	5.0	0	10	-1	-12	-21	-1.2	1.2	43
CCOc1ccc(NC(=S)N=Nc2c(O)[nH]c3ccccc23)cc1	i	?	-12	43	20	-11	-1	-4.2	3.2	-6
COc1cccc(COc2ccc3c(C)cc(=O)oc3c2)c1	i	-3.4	4	-7	6	8	36	-0.2	-0.5	0
O=C(c1ccc(Cl)s1)N1CCN(c2ccccc2)CC1	i	-0.6	2	-23	·	4	-1	3.7	5.7	97*
Cc1occc(=O)c1OC(=O)Nc1ccccc1	·	1.1	1	5	-3	·	·	·	·	-13
O=C(NNC(=O)C12CC3CC(CC(C3)C1)C2)c1cccc([N+](=O)[O-])c1	i	-2.9	11	-8	-1	-8	-1	-6.0	1.0	·
COc1ccc(C2=NOC(C(=O)N(C)Cc3ccccc3)C2)cc1 (stereo not given)	·	1.0	9	-4	-3	14	1	-2.9	-2.5	-7
CC1=C(N2CCCCC2)CCC1=O	i	-1.0	-5	-1	-5	10	5	-2.9	-2.5	·
O=C(C1CCN(S(=O)(=O)c2ccccc2F)CC1)N1CCc2ccccc2C1	i	1.6	-3	0	4	-17	-8	2.2	-4.7	-6
Cc1ccc(NC(=O)NC2CC(=O)N(c3ccc4c(c3)OCCO4)C2)cc1F (stereo not given)	i	3.9	-10	-2	·	13	11	-4.1	-1.4	-2
CCOc1cc(/C=C2\C(=N)N3N=C(C)SC3=NC2=O)ccc1OCCOc1ccccc1	i	1.2	-3	4	·	-2	6	-3.2	1.4	-4
CCC(C)C1C(C#N)=C(N)Oc2n[nH]c(C)c21 (stereo not given)	i	3.9	12	-7	-9	-4	1	0.3	7.7	·
O=C(N/N=C/c1c[nH]c2ccccc12)c1ccn(Cc2ccc(Cl)cc2Cl)n1	·	-2.1	-13	8	4	·	·	·	·	-13
Cc1ccnc(-n2c(C)cc(/C=N/NC(=O)COc3cccc4cccnc34)c2C)c1	i	3.0	-1	-11	·	-19	-10	-1.6	1.0	11
O=C(CSc1nc2ccccc2c(=O)n1-c1ccccc1)NCc1ccco1	·	5.3	-5	10	3	·	·	·	·	-15
Cc1ccc([N+](=O)[O-])cc1NC(=O)c1ccccc1	i	-0.1	-14	-4	·	27	20	5.1	-1.7	-6
CCC1(CC)Cc2ccccc2C(CC(=O)N2CCOCC2)=N1	·	6.4	-2	15	0	·	·	·	·	1
Cc1ccc(C)c(OCC(=O)Nn2c(C)nc3ccccc3c2=O)c1	·	-2.6	7	3	-1	·	·	·	·	-12
COCC(=O)NC1CC(C)(C)Cc2c1cnn2-c1ccc(F)cc1 (stereo not given)	i	6.1	4	-8	-3	19	20	3.5	-4.3	·
O=C(NCc1ccccc1)c1nc[nH]c1C(=O)N1CCc2ccccc2C1	i	·	·	·	-4	-10	-5	-4.5	4.4	21
CCN1CCN(C(c2ccc(F)cc2)c2nnnn2Cc2cccs2)CC1 (stereo not given)	·	-7.2	0	14	-1	·	·	·	·	-4
Cc1ccc(NC(=O)CC2SC(=Nc3ccc(O)cc3)NC2=O)cc1 (stereo not given)	i	?	26	-19	·	3	3	-1.1	-2.5	4
